# Hsc70: Hsc70 inhibitors, probe displacement, primary screen, biochemical, fluorescence polarization (AID 568) | Hsc70 fluorescence polarization, probe displacement; higher % means a stronger effect; strong numbers were not always called active | 83,000 tested, under 10 active | displacement, % at 20 µM, or IC50 in µM where a hit was titrated;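 active = displacement above 50% without optical interference and an IC50 on retest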;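 also: ATPase domain with a fluorescein-tagged ATP probe; 0% = vehicle and 100% = excess ADP; read after one hour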
# WNV protease inh: inhibitors of WNV NS2B-NS3 protease, primary screen, biochemical, fluorogenic substrate. Genome polyprotein (West Nile virus), P06935. fluorogenic substrate Ex360/Em465; active compounds read low. z-score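 (tested at a level between 10 and 100 µM)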. 65,000 tested, 0.18% active;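 active = z-score at -3 or under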;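 also: score is relative to mean and spread of the compound wells of a plate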
# Target sequence (P06935 1371-1501 limits assumed): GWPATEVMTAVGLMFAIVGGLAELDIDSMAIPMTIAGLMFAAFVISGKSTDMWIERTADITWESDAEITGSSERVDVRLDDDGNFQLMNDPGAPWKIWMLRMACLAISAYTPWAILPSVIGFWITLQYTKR
# Target sequence (P06935 1502-1679 limits assumed): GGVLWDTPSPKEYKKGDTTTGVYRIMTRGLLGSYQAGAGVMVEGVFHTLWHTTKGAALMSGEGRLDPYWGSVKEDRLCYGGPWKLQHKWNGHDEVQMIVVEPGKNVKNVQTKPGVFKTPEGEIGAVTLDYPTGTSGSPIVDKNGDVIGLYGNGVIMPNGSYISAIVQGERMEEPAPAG
# MT1-MMP reporter: inhibitors of MT1-MMP promoter transcription, cell-based, luciferase reporter, luminescence (AID 618) | MT1-MMP promoter luciferase reporter cells, luminescence | calls from a first round at 10 µM; hits with a dose series show EC50 in µM | 87,000 tested, 0.62% active;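 active = over half of the reporter light lost at 10 µM or EC50 under 50 µM; inactive = the rest and hits that failed the dose series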;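 also: actives suppress MT1-MMP promoter-driven transcription so potencies describe inhibitors; HT1080 fibrosarcoma cells; overnight exposure; toxic or luciferase-blocking compounds were not removed from the actives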
# An asterisk follows results filed as active; i = inactive; · = not tested or not shown. The list is partial; the hit share may differ from the screen's.
# Below each SMILES: Hsc70	WNV protease inh	MT1-MMP reporter
O=C(NC12CC3CC(CC(C3)C1)C2)N1CCCC(CO)C1 (stereo unspecified)
    -8.9%	-1.32	i
O=c1ccnc(SCc2ccccc2Cl)[nH]1
    -4.2%	0.67	i
Nc1ccc(C(O)(C(F)(F)F)C(F)(F)F)cc1
    3.4%	·	i
Cc1ccc(C(=O)N2CCC(C)CC2)cc1C
    -3.0%	·	i
CCN(CC)C(=O)CSc1nnc([C@H](Cc2c[nH]c3ccccc23)NC(=O)OC(C)(C)C)o1
    -7.5%	0.18	i
CCCN1C(=O)c2ccc(C(=O)NC3=NCCS3)cc2C1=O
    4.1%	0.64	i
CC(c1ccccc1)n1cc(C(=O)NCC2CCCO2)nn1 (stereo unspecified)
    -4.3%	1.48	i
COc1ccccc1-n1cnnc1SCC(=O)N1CCN(S(=O)(=O)c2ccccc2)CC1
    1.0%	-9.52e-05	i
O=S(=O)(NCc1ccc2c(c1)OCO2)c1ccc2c(c1)oc1ccccc12
    6.4%	-0.37	i
CCN1C(=O)CC(N2CCN(c3ccc(OC)cc3)CC2)C1=O (stereo unspecified)
    4.3%	-0.6	i
Cc1cc(C)n(C(=O)CSc2nc3ccccc3o2)n1
    -4.3%	-0.13	i
O=C(c1cccn2c(=O)c3cc(Br)ccc3nc12)N1CCN(c2ccccn2)CC1
    -9.5%	-2.13	i
COC(=O)c1[nH]c2ccc(Br)cc2c1NC(=O)C(C)N1CCN(C2CCCCC2)CC1 (stereo unspecified)
    -7.3%	0.35	i
CC1CCCCN1C(=O)Cc1ccc(F)cc1 (stereo unspecified)
    -3.0%	0.19	i
Cc1nc2ccc(NC(=O)N3CCN(c4ccccn4)CC3)cc2s1
    2.6%	-0.82	i
COc1cccc(C(=O)N2CCN(C(=O)c3cccc4ccccc34)CC2)c1OC
    6.2%	1.16	i
Cn1ccnc1SCC(=O)Nc1cccc(C(F)(F)F)c1
    2.4%	-0.43	i
Cc1nnc2c3cnn(-c4ccc(Cl)cc4)c3ncn12
    2.3%	-0.46	i
CCOC(=O)C(O)(CC(=O)c1ccc(OC)cc1)C(F)(F)F (stereo unspecified)
    3.3%	·	i
Cc1ccc(-c2nc(C3CCCN(S(=O)(=O)c4ccc(C)cc4)C3)no2)cc1 (stereo unspecified)
    -0.3%	0.87	i
Cc1ccccc1N1CCN(Cc2c[nH]c3ccccc23)CC1
    -5.1%	·	i
COc1ccc(NC(=O)CSc2nnc(CNC(=O)c3ccco3)n2-c2ccccc2OC)cc1
    -0.3%	2.21	i
O=C(CN1CCCC(O)C1)N1c2ccccc2Sc2ccc(C(F)(F)F)cc21 (stereo unspecified)
    6.6%	0.21	i
Cc1ccnc(NC(=O)Nc2cccc(F)c2)c1
    -1.2%	-0.71	i
CCOC(=O)C1=C(CS(=O)(=O)c2ccccc2)NC(=O)NC1c1ccccc1OCC (stereo unspecified)
    -3.2%	-0.2	i
CCOC(=O)N1CCC2(CC1)C(C#N)=C(N)OC1=C2C(=O)CC(C)(C)C1
    3.6%	·	i
Cc1ccc(CNC(=O)C2CC(=O)OC23CCCC3)c(C)c1 (stereo unspecified)
    4.0%	0.82	i
CCC(C)(C)n1nnnc1C(c1ccc(C)cc1)N1CCSCC1 (stereo unspecified)
    9.9%	·	i
O=C(c1ccccc1)c1cccn1CC(=O)N1CCN(c2ccccc2)CC1
    -1.1%	-0.07	i
C/C(N)=C(/C#N)C(=O)CSc1nc(C2CCCCC2)n(-c2ccccc2)n1
    12.6%	0.74	i
CCCCCSc1nc2c(c(=O)[nH]c(=O)n2C)n1C(C)C
    6.4%	0.95	i
COc1cccc(N2CC(C(=O)OC(C)C(=O)c3ccccc3)CC2=O)c1 (stereo unspecified)
    -1.1%	-1.22	i
COc1ccc(N/C(N)=N/c2nc(CSc3ccc(Cl)cc3)cc(=O)[nH]2)cc1
    -5.7%	·	i
O=C(c1ccco1)N1CCN(C(=O)c2cc(-c3ccncc3)nc3ccc(Br)cc23)CC1
    -1.7%	-1.12	i
O=C(CC(Sc1ccccc1)c1cccs1)c1ccco1 (stereo unspecified)
    8.5%	-0.44	i
CC(=O)c1c(C)[nH]c(C(=O)NCCc2cccc(C)c2)c1C
    3.8%	0.43	i
O=C(c1cnccn1)N1CCN(S(=O)(=O)c2ccc3ccccc3c2)CC1
    -4.1%	·	i
Cc1nc(NC2=NCN(CCN3CCOCC3)CN2)nc2c(C)cccc12
    8.4%	-0.82	i
c1ccc(COc2ccc(CNn3cnnc3)cc2)cc1
    -1.1%	-0.21	i
Cc1csc2ncc(C(=O)Nc3ccc4c(c3)OCCO4)c(=O)n12
    1.0%	-0.67	i
O=C(Nc1ccccc1F)c1cc(S(=O)(=O)N2CCCCC2)cs1
    -3.8%	0.57	i
CCN(CC)CCN1C(=O)c2ccccc2NC1c1cccc(F)c1 (stereo unspecified)
    -2.1%	0.08	i
CCN(CC)S(=O)(=O)c1ccc2c(c1)c(=O)c(C(=O)N1CCN(c3ccccc3)CC1)cn2C
    3.6%	-0.42	i
CN(C)S(=O)(=O)NC(c1ccccc1)c1ccccc1
    -0.1%	-0.27	i
CCOc1ccc2c(c1)n(CO)c(=S)n2CO
    5.3%	1.28	i
Cc1nnc(SCc2ccc3c(c2)OCO3)s1
    0.6%	·	i
COC(=O)CSc1[nH]c(=O)cc(C)c1C#N
    -1.2%	·	i
Cc1cccc(N2CCN(C(=O)Cn3sc4nc(C)cc(C)c4c3=O)CC2C)c1 (stereo unspecified)
    -6.0%	0.52	i
Cc1occc1C(=O)NC(C)C1CCCO1 (stereo unspecified)
    4.9%	-1.34	i
COc1cc2c(cc1O)CCN(C(=O)c1ccco1)C2C (stereo unspecified)
    -1.8%	·	i
COc1ccccc1C1CC(=O)NC(SCC(=O)Nc2ccccc2)=C1C#N (stereo unspecified)
    -1.2%	0.51	i
COc1ccc(C(=S)N2CCNCC2)cc1
    -2.6%	·	i
COc1cc(OC)c(OC)cc1CNc1cc(C)ccc1OC
    5.5%	-0.79	i
O=C(CSc1nnc(-c2cccs2)o1)c1cccs1
    -5.2%	-0.31	i
CC1CCc2cc(F)cc3c(=O)c(C(=O)O)cn1c23 (stereo unspecified)
    -0.9%	0.26	i
C=CCNC(=O)c1ccccc1NC(=O)c1ccccc1
    -3.4%	-1.07	i
Cc1ccc(S(=O)(=O)c2n[nH]n3c2nc(=O)c2ccccc23)cc1
    2.4%	-1.29	i
O=C(O)c1ccc2c(c1)C(=O)N(Cc1ccccc1)C2=O
    0.1%	0.25	i
COn1c(SC2CCCCC2)nc2ccccc2c1=O
    -3.1%	0.18	i
COc1cccc(NC(=O)COC(=O)c2cccnc2)c1
    -5.6%	0.27	i

# (further entries)
# Below each SMILES: Hsc70	WNV protease inh	MT1-MMP reporter
Cc1nc2cc(NC(=O)N3c4ccccc4CC3C)ccc2o1 (stereo unspecified)
    3.9%	0.77	i
CC(C)N=C1SCC(C)(/C=N/O)S1 (stereo unspecified)
    -1.8%	1.55	i
CC(C)Cn1cnc2c(=O)oc3ccccc3c21
    5.5%	·	i
Cc1sc2nc(CN3CCOCC3)nc(N3CCOCC3)c2c1C
    -1.6%	·	i
O=C(CSc1nnc(-c2ccc(S(=O)(=O)N3CCCC3)cc2)o1)NCc1ccccc1
    -0.8%	·	i
CCOC(=O)CSc1nc2cc(OCC)ccc2cc1C#N
    -50.6%	-0.72	i
CCN(CC)c1ccc(NC(=O)c2cc3ccccc3o2)c(C)c1
    1.8%	0.08	i
Cn1c(SCCCC(=O)c2ccc(Br)cc2)nnc1-c1ccncc1
    -1.4%	·	i
O=C(COc1ncnc2ccccc12)NCCC1=CCCCC1
    3.4%	-0.17	i
COc1ccc(C2=NO[C@@H]3C(=O)N(c4ccc5c(c4)OCCO5)C(=O)[C@H]23)cc1OC
    0.9%	1.38	i
COc1cccc(-n2c(SC)nnc2-c2c[nH]c3ccccc23)c1
    6.4%	-0.000389	i
CN1C(=O)CC(N2CCN(C(=O)CN3CCCC3)CC2)C1=O (stereo unspecified)
    -4.2%	2.06	i
COc1ccc(-c2nc(CSCC(=O)NCc3ccco3)c(C)o2)cc1
    -7.9%	-1.1	i
CCCOc1ccc(N2CC(C(=O)Nc3ccc4c(c3)OCO4)CC2=O)cc1 (stereo unspecified)
    -1.3%	-0.48	i
Cc1nc(P(=O)(c2ccccc2)c2ccccc2)c(N2CCOCC2)o1
    1.2%	-0.54	i
COc1ccc(OC)c(S(=O)(=O)N2CCC(C(=O)NC(C)c3ccccc3)CC2)c1 (stereo unspecified)
    9.4%	1.9	i
O=S(=O)(Nc1nc2ccccc2[nH]1)c1ccc(Cl)cc1
    0.3%	0.37	i
CCc1nnc(NC(=O)c2ccc(S(=O)(=O)N(CC(C)C)CC(C)C)cc2)o1
    0.2%	1.91	i
O=C1CCCN1c1ccc(CNS(=O)(=O)c2ccc(F)cc2)cc1
    0.1%	-0.71	i
O=C(Cn1cc(C(=O)C2CC2)c2ccccc21)NCc1ccc2c(c1)OCO2
    3.1%	·	i
Nc1nnc(SCCN2C(=O)c3ccccc3S2(=O)=O)s1
    3.8%	-0.13	i
CN(C)/C=N/c1ncnc2c1cnn2-c1ccc(C(F)(F)F)cn1
    -4.9%	-0.36	i
CC(C)CCn1c(SCC(=O)N2CC(=O)Nc3ccccc32)nc2scc(-c3cccs3)c2c1=O
    -7.0%	·	i
CC(C)(C)NC(=O)Nc1ccc2nccnc2c1
    0.8%	0.49	i
COc1ccccc1N1CCN(C(=O)c2cc3c(=O)n(C)c4ccccc4c3n2C)CC1
    0.1%	1.24	i
CCOC(=O)c1ccc(NC(=O)C2CCCN(S(=O)(=O)c3cnc[nH]3)C2)cc1 (stereo unspecified)
    3.0%	-1.13	i
CCN(CC)S(=O)(=O)c1ccc(Oc2ccc(S(=O)(=O)N(CC)CC)cc2)cc1
    5.9%	·	i
COc1cccc(Nc2nc(C)cc(C)c2C#N)c1
    3.1%	·	i
COc1ccc(S(=O)(=O)N(Cc2cc3ccc(OC)cc3[nH]c2=O)CC2COCCO2)cc1 (stereo unspecified)
    -3.6%	0.64	i
COc1ccc(C2=NO[C@@H]3C(=O)N(c4ccc(C)cc4C)C(=O)[C@H]23)cc1OC
    2.9%	0.38	i
O=C(O)CC(c1ccc(Cl)cc1)N1C(=O)CCC1=O (stereo unspecified)
    0.9%	-1.41	i
Cc1nn2c(=O)cc(CSc3nc4ccccc4[nH]3)nc2s1
    -2.5%	-0.75	i
COc1cc(NC(=O)c2cc(-c3cccs3)on2)cc(OC)c1OC
    -0.9%	0.52	i
CCN1CCN(C(=O)C2CCN(S(=O)(=O)c3cccc4cccnc34)CC2)CC1
    8.8%	-0.62	i
Cc1ccc(C(=O)CSc2nnc(COc3cc(C)cc(C)c3)o2)cc1
    -9.2%	0.15	i
CCc1nc(NCCc2ccccn2)c2nnn(Cc3ccccc3F)c2n1
    5.9%	0.71	i
CCOC(=O)c1c(NC(=O)c2cccs2)sc(C)c1CC
    -6.8%	0.43	i
Cc1cc(C)n(CCn2nc(C)cc2C)n1
    5.0%	-0.58	i
COC(=O)c1cnn(-c2ccc(C)c(C)c2)c1-n1cccc1
    -2.0%	-0.03	i
CC(C)CCC(C(=O)O)C(C)CC(=O)NC1CCCCC1 (stereo unspecified)
    1.3%	-0.81	i
CCOCCCn1c(=NC(=O)c2ccc(OC)c(OC)c2)c(C#N)cc2c(=O)n3cccc(C)c3nc21
    -18.2%	·	i
O=C(NC1CCCCCC1)C1c2ccccc2C(=O)N1Cc1ccco1 (stereo unspecified)
    4.5%	0.74	i
O=C(CN(Cc1ccco1)C(=O)Cn1nnc(-c2cccs2)n1)NCc1ccccc1
    1.8%	1.55	i
COC(=O)c1ccc(CSc2nnc(Nc3ccc(OC)cc3)s2)o1
    -4.1%	·	i
Cc1nc2sccn2c1-c1csc(NCc2ccccc2)n1
    -4.0%	-0.53	i
CC(C)(C)NC(=O)c1ccc(COCC(F)(F)F)o1
    4.9%	0.00578	i

# An excerpt from above with just Hsc70:
compound | Hsc70
CCOCCCn1c(=NC(=O)c2ccc(OC)c(OC)c2)c(C#N)cc2c(=O)n3cccc(C)c3nc21 | -18.2%
O=C(NC1CCCCCC1)C1c2ccccc2C(=O)N1Cc1ccco1 (stereo unspecified) | 4.5%
O=C(CN(Cc1ccco1)C(=O)Cn1nnc(-c2cccs2)n1)NCc1ccccc1 | 1.8%
COC(=O)c1ccc(CSc2nnc(Nc3ccc(OC)cc3)s2)o1 | -4.1%
Cc1nc2sccn2c1-c1csc(NCc2ccccc2)n1 | -4.0%
CC(C)(C)NC(=O)c1ccc(COCC(F)(F)F)o1 | 4.9%

# Quoted at random: 3 compounds from above
# Below each SMILES: Hsc70	WNV protease inh	MT1-MMP reporter
O=C(CN(Cc1ccco1)C(=O)Cn1nnc(-c2cccs2)n1)NCc1ccccc1
    1.8%	1.55	i
CC(C)(C)NC(=O)c1ccc(COCC(F)(F)F)o1
    4.9%	0.00578	i
O=C(NC1CCCCCC1)C1c2ccccc2C(=O)N1Cc1ccco1 (stereo unspecified)
    4.5%	0.74	i

# Screening data as filed in PubChem.
